FGF22 binding: binders of human FGF22 protein, primary screen, FGF22 synaptogenesis inhibitor project, biophysical, thermal shift, single point. Fibroblast growth factor 22 (Homo sapiens), Q9HCT0. recombinant FGF22 thermal shift, SYPRO orange fluorescence; percent of sucrose octasulfate shift, DMSO zero. calls only at 9.99 µM. 1.5% of 340,000 active;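 active = melting point raised past a set limit in the mean and every replicate; inconclusive = no clear call; three in four hits are not shown here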
Target sequence (Q9HCT0 whole entry, looked up): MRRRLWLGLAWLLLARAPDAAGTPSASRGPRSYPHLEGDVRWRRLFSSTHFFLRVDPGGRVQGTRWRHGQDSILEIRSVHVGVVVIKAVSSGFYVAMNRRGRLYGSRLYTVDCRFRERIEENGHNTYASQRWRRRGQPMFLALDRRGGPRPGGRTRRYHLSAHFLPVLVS
Beta cell apopt: inhibitors of cytokine-induced beta cell apoptosis, primary screen, luminescence. INS-1E cytokine-induced death, ATP luminescence, 48 h; percent of positive-control rescue, neutral wells zero. protection from apoptosis, % (test concentration not listed). 0.8% of 300,000 active. AID 435005, 2010;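 active = all replicates at 75% or more, or half of them and the mean; inconclusive = half reach 75% but not the mean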;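 note: 0% = cytokine-treated negative control wells and 100% = positive control rescue; higher means more ATP so stronger rescue from cytokine killing; wells of about 40 µL received 100 nL stock; the first replicate is given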
UCH37 DUB inh: inhibitors of human UCH37 deubiquitinase, primary screen, biochemical, Ub-AMC cleavage, fluorescence. 0.33% of 330,000 active. Ubiquitin carboxyl-terminal hydrolase isozyme L5 (Homo sapiens), Q9Y5K5. purified proteasome/UCH37. AID 588478, 2011. inhibition, % (concentration not given with the values);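 active = mean of two replicates above 20%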;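 note: 0% = compound-free wells with enzyme and 100% = wells lacking proteasome; stock transfer was 100 nL into about 20 µL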
Target sequence (Q9Y5K5 whole entry, looked up): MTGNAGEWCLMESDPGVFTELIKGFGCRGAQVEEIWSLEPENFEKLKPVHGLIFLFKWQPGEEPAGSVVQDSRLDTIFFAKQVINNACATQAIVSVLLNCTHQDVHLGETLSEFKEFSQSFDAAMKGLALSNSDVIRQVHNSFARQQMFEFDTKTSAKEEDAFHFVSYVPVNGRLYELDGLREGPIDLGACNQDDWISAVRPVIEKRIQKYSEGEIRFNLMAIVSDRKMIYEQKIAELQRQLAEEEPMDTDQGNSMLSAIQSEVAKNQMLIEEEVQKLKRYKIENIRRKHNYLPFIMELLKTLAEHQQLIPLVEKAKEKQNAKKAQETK
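Material: human UCH37 enzyme supplied as purified proteasome complex / Amount: 0.15 nM proteasome as dispensed / Buffer or medium: pH 7.4 Tris-HCl (50 mM) with ovalbumin, ATP-MgCl2, DTT / Times: preincubation 30 min, reaction 25 min, room temperature / Technique: AMC fluorescence from Ub-AMC cleavage, excitation 355 nm, emission 460 nm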
Ecoli growth: E. coli growth inhibition, primary screen, OD600; AID 1053175, 2014; Escherichia coli growth, 23 h; stronger effect = lower value; OD600 absorbance (test concentration not listed); 0.21% of 330,000 active;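 active = OD600 absorbance below the run mean of sample wells minus 3.6 SD, in any replicate, cut at about 0.56 in these data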;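 note: stock transfer was 300 nL into about 60 µL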
A1 inh: caspase 3/7 activation in MEF A1-2A-BIM cells, primary screen, A1 inhibitor project, cell-based, luminescence, HTS; Caspase-Glo 3/7 luminescence, 3 h; percent of clofoctol response, vehicle zero; caspase activation, % (test concentration not listed); 0.066% of 330,000 active;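 active = over half of replicate activation scores above 10%, or exactly half above 10 with the replicate mean above 10; inconclusive = replicate mean below 10 yet half the replicates above 10; inactive = over half of replicates below 10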;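 note: wells of about 30 µL received 50 nL stock; many hits fall short of the cut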
AF4-AF9 inh: inhibitors of AF4 peptide binding to AF9, primary screen, biochemical, AlphaScreen, biotin-AF4 peptide, FLAG-AF9, single point. Protein AF-9 (Homo sapiens), P42568. inhibition, % at 10 µM. 0.47% of 350,000 active. AID 651704, 2012;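 active = every replicate reaching a set inhibition limit, whatever the replicate mean, cut at about 25% in these data; inconclusive = mean inhibition reaches that limit but some replicates miss it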;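 note: 0% = plate neutral control median and 100% = total signal loss; the record names both 10 and 1 µM as test concentration; the first replicate is given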
Target sequence (P42568 whole entry, looked up): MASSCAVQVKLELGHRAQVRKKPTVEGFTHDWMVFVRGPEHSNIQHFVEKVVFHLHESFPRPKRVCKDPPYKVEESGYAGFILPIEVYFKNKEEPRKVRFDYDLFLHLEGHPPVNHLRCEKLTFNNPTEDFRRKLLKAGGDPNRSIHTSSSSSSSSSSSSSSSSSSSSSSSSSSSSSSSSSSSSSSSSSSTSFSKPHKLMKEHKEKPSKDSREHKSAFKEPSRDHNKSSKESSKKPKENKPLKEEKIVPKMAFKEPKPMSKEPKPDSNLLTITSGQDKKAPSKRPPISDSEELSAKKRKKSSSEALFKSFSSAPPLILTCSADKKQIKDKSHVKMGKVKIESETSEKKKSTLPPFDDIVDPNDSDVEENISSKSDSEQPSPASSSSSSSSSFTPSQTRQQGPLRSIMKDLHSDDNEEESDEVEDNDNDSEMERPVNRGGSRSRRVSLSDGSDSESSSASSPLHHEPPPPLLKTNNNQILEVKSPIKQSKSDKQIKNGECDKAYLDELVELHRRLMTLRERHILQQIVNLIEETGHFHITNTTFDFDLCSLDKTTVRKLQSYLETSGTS
Ecoli rRNA inh: reduced GFP signal of wild-type E. coli, primary screen, bacterial rRNA inhibitor project, GFP/RFP fluorescence, OD600, single point; GFP signal change (wild-type ribosome), % (concentration not given with the values); E. coli WT GFP vs humanized-ribosome RFP mutants, 24 h; stronger effect = lower value; DMSO median 0, no signal -100; 1.6% of 350,000 active; AID 720706, 2013;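 active = significant combined selectivity score with lowered wild-type GFP, culture density cut under 30%, mutant RFP and density less affected; inactive = any of these conditions unmet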; note: one replicate is shown; some compounds called inactive have numbers as strong as hits
T cruzi repl: inhibitors of intracellular T. cruzi growth, primary screen, luminescence, NIH3T3 host cells; T. cruzi beta-gal in NIH3T3, 90 h; inhibition, % (test concentration not listed); 1.4% of 300,000 active;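 active = mean inhibition across valid replicates above about 55%, limit read from the data; inconclusive = mean below that limit but half or more replicates reach it; inactive = mean below it, under half of replicates reach it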;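 note: signal also drops with host cell toxicity which is not excluded here; 0% = plate median of DMSO wells and 100% = zero luminescence signal; higher percent means less beta-gal luminescence so fewer parasites; stock transfer was 50 nL into about 50 µL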
Ecoli rRNA inh OD600: recorded beside Ecoli rRNA inh, whose call it bears; OD600 change, %; measured here: OD600 growth;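 optical density of the mix in the first replicate; 0 = DMSO median and -100 = no signal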
Ecoli rRNA inh RFP: also measured in Ecoli rRNA inh; calls as there; RFP signal change, %; measured here: RFP humanized mutant strains;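 first replicate; 0 = DMSO median and -100 = no signal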
The depositor's hits bear a star; i = inactive; ? = inconclusive; . = not tested or not shown.

No.	Molecule	FGF22 binding	Beta cell apopt	UCH37 DUB inh	Ecoli growth	A1 inh	AF4-AF9 inh	Ecoli rRNA inh	Ecoli rRNA inh OD600	Ecoli rRNA inh RFP	T cruzi repl
1	Cc1ccc(S(=O)(=O)NC2=NCN(CCOC(=O)c3ccccc3)CN2)cc1	i	-9	2.4	0.68	1.0	-53	19	8	-6.0	-1
2	Cc1c(Cl)cccc1NC(=O)C1C2C=CC(C2)C1C(=O)O (stereo not given)	i	-6	0.0	0.66	-0.2	-3.7	3	3	-6.6	-9
3	NC(=O)[C@@H]1[C@@H]2C(=O)N(c3ccc(F)cc3)C(=O)[C@@H]2[C@H]2C=Cc3ccccc3N21	i	-4	-1.5	0.71	0.1	-2.7	7	9	9.8	-14
4	O=C(c1cccc(Cl)c1)C1CCCN(Cc2ccc(N3CCNC3=O)cc2)C1 (stereo not given)	i	.	5.2	0.66	-0.3	-5.4	-29	-13	16	36
5	NCCCC[C@H]1CN=C(N)N1CCc1cccc2ccccc12	i	-9	-1.0	.	-2.0	4.5	15	13	13	-20
6	O=c1c2cn[nH]c2[nH]c(=S)n1-c1ccccc1	.	3	2.3	0.71	0.8	.	.	.	.	-16
7	COc1ccc(-c2nc(SC)n(C(=O)c3ccco3)n2)cc1	.	1	1.0	0.66	-0.2	.	.	.	.	-5
8	Nc1cccnc1Sc1cccc(Cl)c1	.	-11	-8.1	0.64	-0.5	.	.	.	.	-8
9	Cc1cc2nc3n(c2cc1C)CC1CC(C(=O)NCCC(C)C)N(C)C31 (stereo not given)	i	-5	0.0	0.65	0.0	-3.7	7	6	4.3	-3
10	CCCC(C)c1nnc(NC(=O)CN2C(=O)c3ccccc3C2=O)s1 (stereo not given)	i	-7	-3.2	0.65	-0.1	-3.5	9	5	-4.9	-3
11	CCOC(=O)c1sc(NC(=O)c2cc3ccccc3o2)nc1C	i	-13	-41	0.7	-2.5	1.5	3	3	-2.1	0
12	CCN1CCN(c2ccc(S(=O)(=O)N3CCOCC3)cc2NC(=O)c2cc(Cl)nc3ccccc23)CC1	.	1	4.8	0.7	1.7	4.2	2	4	0.3	-3
13	COC(=O)Cn1nc(-c2ccccc2)c2ccccc21	.	-4	1.1	0.68	0.2	.	.	.	.	-12
14	CCOC(=O)C1=C(C)C/C(=N\NC(=O)c2ccccc2O)CC1	i	14	.	.	-5.5	1.5	6	10	7.7	-7
15	COc1ccc(CN(C)Cc2ccccc2)c(OC)c1OC	.	-2	2.4	0.61	-0.5	.	.	.	.	9

Carrying on:
No.	Molecule	FGF22 binding	Beta cell apopt	UCH37 DUB inh	Ecoli growth	A1 inh	AF4-AF9 inh	Ecoli rRNA inh	Ecoli rRNA inh OD600	Ecoli rRNA inh RFP	T cruzi repl
16	COC(=O)C1(CO)NC(c2ccc(C)cc2)C2C(=O)N(c3ccccc3)C(=O)C21 (stereo not given)	i	-3	0.3	0.7	0.1	3.4	4	11	-2.1	-18
17	O=C1COCC(=O)N1CCc1c[nH]c2ccccc12	i	-2	1.4	0.68	0.6	2.2	12	0	0.0	-7
18	O=C(Nc1cc(F)ccc1F)C1CCCN(c2ncnc3c2nc2n3CCCCC2)C1 (stereo not given)	i	3	-0.5	0.7	-0.1	4.1	-31	-42	-8.6	9
19	Cc1oc(-c2cccs2)[n+]([O-])c1C	.	-11	2.2	0.68	2.8	.	.	.	.	-9
20	COc1ccc(C(=O)NCCC(C)C)cc1S(=O)(=O)N1CCOCC1	.	-6	2.8	0.7	0.1	.	.	.	.	-5
21	COc1cc(C(=O)N2c3ccccc3CCC2C)cc(OC)c1OC (stereo not given)	i	-3	1.2	0.64	0.3	-2.6	0	-7	0.5	4
22	Cc1ccc(S(=O)(=O)N2CCN(C(=O)COC(=O)c3ccccc3Cl)CC2)c(C)c1	i	3	0.0	0.67	-0.3	-1.3	-12	-19	3.2	.
23	COc1cc(/C=C/c2ccc3cccc([N+](=O)[O-])c3n2)ccc1OCC(=O)O	i	2	16	0.68	-0.5	3.3	-12	-13	1.9	2
24	CC(=O)OCC(=O)C1(O)CCC2C3CC(C)C4=CC(=O)C=CC4(C)C3=CCC21C (stereo not given)	i	.	2.0	0.68	.	-2.7	-11	-21	8.0	.
25	Cc1ccc(CNC(=O)C2=CCN(S(=O)(=O)c3ccc(C)cc3)CC2)cc1	i	.	2.9	0.77	-0.1	0.2	8	-7	0.7	8
26	CC1CCC(C(C)C)C(OC(=O)COC(=O)c2cc(O)ccc2N)C1 (stereo not given)	.	-3	-215	0.7	0.4	.	.	.	.	70*
27	Nc1ccc(-c2nnnn2-c2ccc(N)cc2)cc1	i	-7	0.6	0.69	2.3	-9.0	-4	1	-0.8	-10
28	CS(=O)(=O)N(CC(=O)N1CCCCCC1)c1ccc2c(c1)OCCO2	i	1	0.2	0.67	-0.2	1.1	5	1	0.7	-11
29	C/C=C/C=C/C(=O)OC(C)C(=O)Nc1cc([N+](=O)[O-])ccc1OC (stereo not given)	i	-4	1.9	0.74	-0.7	4.9	-2	3	0.6	-12
30	Cc1ccc(NS(=O)(=O)c2ccc3c(c2)oc(=O)n3C)cc1F	i	1	3.7	0.67	0.3	1.0	0	-3	2.9	1

New compounds follow.
No.	Molecule	FGF22 binding	Beta cell apopt	UCH37 DUB inh	Ecoli growth	A1 inh	AF4-AF9 inh	Ecoli rRNA inh	Ecoli rRNA inh OD600	Ecoli rRNA inh RFP	T cruzi repl
31	CCC(C)N(C(=O)CSc1nc(C)c(C)c(C)c1C#N)C1CCS(=O)(=O)C1 (stereo not given)	i	-7	2.0	0.69	0.2	-1.6	.	.	.	.
32	CC(C)(C)c1nnc(NS(C)(=O)=O)s1	.	4	2.1	0.69	-0.1	.	.	.	.	-18
33	O=C(CC1C(=O)NCCN1Cc1cccc(F)c1)NCCCN1CCCC1=O (stereo not given)	i	.	-8.5	0.72	0.0	0.4	2	6	1.0	-11
34	O=C(N/N=C/C(Cl)=C/c1ccccc1)c1ccncc1	i	1	.	.	-0.1	-0.2	8	16	5.8	-25
35	COc1cccc(-c2nc3c(c(=O)[nH]c(=O)n3Cc3ccccc3)n2CCO)c1OC(F)F	i	-2	3.3	0.63	0.5	-0.1	2	8	6.7	0
36	NC(=O)C1CCN(C(c2ccccc2F)c2nnnn2Cc2ccco2)CC1 (stereo not given)	.	-3	-0.2	0.68	-0.3	.	.	.	.	-13
37	Cc1ccc(NC(=S)NNS(=O)(=O)c2ccc3ccccc3c2)cc1Cl	i	-6	5.2	0.76	0.0	-26	-22	-32	0.8	-8
38	O=C(Cc1ccccc1)NNC(=S)Nc1ccccc1	.	0	7.5	0.65	1.2	-2.9	-3	-12	-4.2	1
39	COc1cccc(NC(=S)NC2CC3CCCC(C2)N3C2CCCC2)c1 (stereo not given)	i	-8	0.1	0.65	0.4	6.0	7	-1	3.9	-25
40	CCN(CC)CCNC(=O)c1ccccc1C(=O)c1ncc[nH]1	.	.	-6.6	0.78	1.3	.	.	.	.	-4
41	Cc1cc(S(=O)(=O)Nc2ccccc2C(=O)O)ccc1Cl	i	-5	0.8	0.73	?	-64	-26	-31	5.3	-5
42	O=C(CCSc1nnc(-c2ccncc2)o1)Nc1ccccc1Cl	.	-3	-0.9	0.8	1.5	.	.	.	.	-6
43	CN1C(C(=O)NCc2cccc(C(F)(F)F)c2)CC2Cn3c(nc4cc(Cl)c(Cl)cc43)C21 (stereo not given)	i	2	1.2	0.66	0.5	-3.2	-9	-6	0.4	34
44	COc1ccccc1S(=O)(=O)N1CCNC(=O)C1	i	-6	6.0	0.72	1.0	-0.8	7	10	-0.6	.
45	Cc1cccc(-n2nc(C)c3c2NC2=C(C(=O)CCC2)C3c2ccccn2)c1 (stereo not given)	i	-2	-282	0.71	0.5	1.8	1	-4	0.3	7

An excerpt of these results, with two lines to a compound.
Values in the order – FGF22 binding	Beta cell apopt	UCH37 DUB inh	Ecoli growth	A1 inh	AF4-AF9 inh	Ecoli rRNA inh	Ecoli rRNA inh OD600	Ecoli rRNA inh RFP	T cruzi repl
44: COc1ccccc1S(=O)(=O)N1CCNC(=O)C1
  i	-6	6.0	0.72	1.0	-0.8	7	10	-0.6	.
31: CCC(C)N(C(=O)CSc1nc(C)c(C)c(C)c1C#N)C1CCS(=O)(=O)C1 (stereo not given)
  i	-7	2.0	0.69	0.2	-1.6	.	.	.	.

(more compounds)
No.	Molecule	FGF22 binding	Beta cell apopt	UCH37 DUB inh	Ecoli growth	A1 inh	AF4-AF9 inh	Ecoli rRNA inh	Ecoli rRNA inh OD600	Ecoli rRNA inh RFP	T cruzi repl
46	CCOC(=O)c1c(C)c(C(=O)NCc2ccc(OC)cc2)c(C)n1C	i	4	3.4	0.72	-0.5	-1.3	7	7	1.6	-3
47	O=C(O)[C@H](Cc1ccccc1)N1Cc2ccccc2C1=O	i	-11	3.0	0.73	0.7	-2.3	3	11	-4.8	-8
48	O=C(Nc1ccccc1)c1cccc2c(Br)cccc12	i	1	-1.7	0.71	-1.7	-7.2	14	10	3.6	2
49	CN(C)C(=O)CCc1ccc2c3c([nH]c2c1)[C@]1(CCC2CCCC2)[C@@H](C(=O)N2CCOCC2)C[C@H](CC(=O)NCCC2=CCCCC2)C(=O)N1CC3	i	.	4.7	0.71	.	4.7	-1	-3	0.8	.
50	N#CCCn1cc(C(=O)Nc2ccc(C(=O)O)cc2)c(-c2cc3ccccc3o2)n1	i	-4	6.8	0.69	0.4	4.3	5	0	-0.7	-5
51	CC(C)c1ccc(O)c(NC(=O)c2cncc(Br)c2)c1	.	-3	1.3	0.72	2.1	.	.	.	.	0
52	N#CCc1ccc(NC(=O)c2ccc(S(=O)(=O)N3CCOCC3)cc2)cc1	i	-13	4.5	0.7	0.9	-0.6	16	17	0.6	-15
53	Cc1ccc(CN2CCN(/N=C/c3cccs3)CC2)cc1	i	.	.	.	-0.5	14	.	.	.	5
54	Cc1ccc2[nH]c3c(c2c1)CN(C(=O)CN(C)CC1OCCO1)CC3	.	-7	2.1	0.72	0.2	.	.	.	.	-6

Bioassay records (PubChem BioAssay)

The list is partial, so the mix of outcomes need not match the whole.
